Screening results as filed in PubChem.
GLA inh pH 4.5 = alpha-galactosidase A (human) inhibition, pH 4.5. P06280. purified enzyme, 4-MU-alpha-Gal fluorescence, pH 4.5. activity change, negative = inhibition, % at 105 µM. 230,000 tested, under 10 active. AID 1467; inconclusive = small, poorly fitted or top-dose-only inhibition, or a rising curve; inactive = flat fitted curve, though single readings scatter; no compound was filed as active;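 further: 0% = full activity with enzyme and -100% = basal without enzyme; dose as in the result columns while the protocol names 77 µM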
miR-21 FLuc = miR-21 reporter, rising signal. HeLa miR-21 FLuc reporter, luciferase, 48 h. Potency, µM (series often up to 38.3 µM), for inactives: at the highest dose reporter change, positive = more light. 340,000 tested, under 10 active. AID 2288; active = well fitted rising curve with a large enough effect; inconclusive = small, poorly fitted or top-dose-only effect; inactive = no such curve, though single readings can be large or run the other way;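 further: % of control where 0% means no effect; miR-21 action dims this reporter so a rising signal means less miR-21 action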
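HeLa cells endogenously expressing miR-21, stably carrying CMV-driven firefly luciferase with a downstream miR-21 binding site, 2000 cells/well. Titrations up to approximately 40 uM, 48 hours; luciferase luminescence read.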
Rango dissoc inh = inhibition of RanGTP-driven Rango-importin beta dissociation | Biochemical FRET Rango-importin beta, RanGTP-induced dissociation | Potency, µM (highest dose often 46.1 µM), for the others: at the highest dose activity change, negative = inhibition | hit rate 0.071% among 340,000 | AID 540253; active means falling FRET ratio curve, often poorly fitted, with flat reads before Ran was added; inconclusive means other falling curves, or compound fluorescence or quenching; inactive means flat or rising ratio curve;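 further: potency means the concentration at half of the fitted maximal effect; % of control where 0% means no effect; nearly all actives have a fitted effect of over 45% in size; -100% = wells without RanGTP and RCC1; the record marks most hits as doubtful in a second field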
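Compounds preincubate 5 min with complex of recombinant Rango and importin beta in PBS with 1 mM DTT. Ran (0.6 uM) loaded with 2 mM GTP plus 0.2 uM RCC1 starts dissociation; FRET is recorded 45 min later.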
Rango complex inh = prevents formation of the Rango-importin beta complex. Q14974. Rango CFP/YFP FRET sensor + importin beta, 45 min. Potency, µM (top dose mostly 92.2 µM), without a hit: at the top dose inhibition of complex formation. hit rate 0.031% among 340,000. AID 540263; active = rising FRET ratio curve, often small or poorly fitted; inconclusive = mostly compound fluorescence or quenching in the first reads; inactive = flat curves in all reads;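 further: potency means the concentration at half of the fitted maximal effect; 0% = DMSO wells and 100% = buffer wells lacking importin beta; nearly all actives have a fitted effect of over 15% in size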
Target sequence (Q14974 whole entry, looked up): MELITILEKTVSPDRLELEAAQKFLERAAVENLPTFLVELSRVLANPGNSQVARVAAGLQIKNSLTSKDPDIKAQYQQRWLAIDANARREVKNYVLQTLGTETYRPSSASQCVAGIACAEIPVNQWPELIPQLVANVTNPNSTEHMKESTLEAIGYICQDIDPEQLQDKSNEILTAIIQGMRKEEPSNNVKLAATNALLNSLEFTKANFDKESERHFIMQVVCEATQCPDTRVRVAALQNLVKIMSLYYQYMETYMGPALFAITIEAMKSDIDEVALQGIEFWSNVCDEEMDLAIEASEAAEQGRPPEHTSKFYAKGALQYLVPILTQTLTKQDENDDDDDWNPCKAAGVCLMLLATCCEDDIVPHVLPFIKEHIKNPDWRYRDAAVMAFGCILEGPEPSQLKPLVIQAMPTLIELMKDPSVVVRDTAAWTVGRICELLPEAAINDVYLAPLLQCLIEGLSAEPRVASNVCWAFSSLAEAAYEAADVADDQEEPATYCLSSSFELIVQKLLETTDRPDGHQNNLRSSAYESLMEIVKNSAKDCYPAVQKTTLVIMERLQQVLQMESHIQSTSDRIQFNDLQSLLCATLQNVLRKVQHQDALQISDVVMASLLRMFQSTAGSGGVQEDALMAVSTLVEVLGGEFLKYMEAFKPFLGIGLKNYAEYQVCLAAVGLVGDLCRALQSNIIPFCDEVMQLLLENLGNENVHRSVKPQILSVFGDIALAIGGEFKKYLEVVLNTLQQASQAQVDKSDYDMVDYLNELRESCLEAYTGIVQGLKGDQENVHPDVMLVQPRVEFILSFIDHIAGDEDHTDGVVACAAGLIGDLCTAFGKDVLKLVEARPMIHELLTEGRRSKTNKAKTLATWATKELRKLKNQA
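FRET biosensor Rango (snurportin 1 IBB between N-terminal EYFP and C-terminal Cerulean), 50 nM in PBS/1 mM DTT/0.02% Tween-20/0.1% BSA, preincubated 5 min RT with compound; 0.125 microM importin beta added, 45 min RT, CFP/YFP FRET ratio read.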
Numbers without * were called inactive; ? = inconclusive; . = no result given; & = joins results of further samples; [ ] = another dose, or the depositor's remark. This is a subset, so the mix of outcomes need not match the whole.

nr | mol | GLA inh pH 4.5 | miR-21 FLuc | Rango complex inh | Rango dissoc inh
1 | COc1ccc(NC(=O)Cn2cc(C(=O)c3ccco3)c3ccccc32)cc1 | 4 | -7% | 1.9% | 7%
2 | COc1ccc(NC(=O)C(NC(=O)OC(C)(C)C)C(C)OCc2ccccc2)cc1 (configuration not stated) | 4 | -12% | 0.7% | -8%
3 | OCc1nc2ccccc2n1/N=C/c1cccs1 | -7 | 1% | -1.3% | -1%
4 | COc1ccccc1C(=O)Nc1cc(C)c(OCC(=O)N2CCOCC2)c(C)c1 | . | -12% | 3.2% | 1%
5 | COc1cccc(/C=C2\CC(C)Cc3c2nc2ccccc2c3C(=O)O)c1OC (configuration not stated) | . | -5% | 0.1% | 2%
6 | COc1ccccc1CNC(=O)COC(=O)C12CC3CC(CC(O)(C3)C1)C2 | . | . | -3.4% | 0%
7 | CSCCC(NC(=O)/C(=C\c1ccco1)NC(=O)c1ccco1)C(=O)O (configuration not stated) | . | 5% | -3.0% | -28%
8 | O=C(c1cc2c(s1)-c1ccccc1OC2)N1CCN(c2ccccc2)CC1 | 1 | -8%&-6% | 0.7% | -8%
9 | Cc1nnc(NC(=O)c2cccc(S(=O)(=O)N(C)c3cccc(Cl)c3)c2)s1 | . | . | 0.2% | 5%
10 | O=C(O)C1C2CCC(C2)C1C(=O)NCCC1=CCCCC1 (configuration not stated) | 6 | -9% | 0.3% | 16%
11 | CCCOc1ccc(CCC(=O)N/N=C/c2ccc([N+](=O)[O-])o2)cc1 | -6 | 27% | -2.1% | -8%
12 | CC(=O)c1cc(C)c(OCc2cn(CC(=O)c3ccc(O)cc3)nn2)c(C)c1 | . | . | -0.4% | ?
13 | CCOc1ccc(N(CC(=O)N2CCOCC2)S(=O)(=O)c2ccc(Cl)cc2)cc1 | . | 5% | 0.5% | -4%
14 | CCOc1nc(C)cc(COC)c1C(N)=O | -7[21.1 µM] | 0% | -0.6% | -19%
15 | COc1ccc(NC(=O)C2C3C=CC(C3)C2C(=O)NCc2ccccn2)c(OC)c1 (configuration not stated) | 3 | -7% | 0.9% | 0%
16 | COc1ccc(Cn2nc(C(=O)O)c3ccccc3c2=O)cc1F | . | -1% | 0.7% | 2%
17 | O=C(CN1C(=O)NC(c2ccccc2)(c2ccccc2)C1=O)Nc1ccc2[nH]c(=O)[nH]c2c1 | 1 | -2% | 0.7% | -1%
18 | CCOc1cc(S(=O)(=O)N2CCCCC2)ccc1F | 1 | -3% | -1.5% | 7%
19 | O=S(=O)(NCCC1=CCCCC1)c1ccccc1Cl | . | . | 1.9% | -5%
20 | CN1CCN(C(=S)Nc2ccc([N+](=O)[O-])cc2)CC1 | -11 | -10% | -3.5% | -11%
21 | O=[N+]([O-])c1cccc(COc2cccc(CO)c2)c1 | . | . | -3.9% | 0%
22 | COc1cccc(-n2ccnc2SCC(=O)Nc2nccs2)c1 | -2 | -36% | -2.9% | -18%
23 | CCOC(=O)c1sc(NC(=O)CCN2C(=O)c3ccccc3C2=O)c(C(=O)OCC)c1C | 12 | -30% | -2.0% | -7%
24 | CC(=O)N1CCc2ccc([N+](=O)[O-])cc21 | . | . | 0.0% | 11%
25 | CCCN1CCC(=O)N([C@H](CSc2ccc(C)cc2)CC(C)C)CC1 | 4 | -45% | 2.7% | -2%
26 | COc1ccccc1N(CC(O)Cn1c(C)nc2ccccc21)S(=O)(=O)c1ccccc1 (configuration not stated) | -15 | -6% | -3.5% | -13%
27 | Cc1cc(NC(=O)C(C)C)ncc1NC(=O)CCc1ccccc1 | 3 | -1% | -5.2% | 24%
28 | O=C(Cn1cc[n+](CC(=O)c2ccccc2)c1)c1ccccc1 | -13 | -3% | 1.8% | -7%
29 | O=C(NCC1CCCO1)C(=O)N/N=C\c1ccc2c(c1)OCO2 (configuration not stated) | . | -4% | -1.2% | -11%
30 | CSc1ccc(/C=C2/C(=N)N3N=C(CC(=O)N4CCCC4)SC3=NC2=O)cc1 | . | -2% | -3.2% | 1%
31 | CCCCOC(=O)n1c(=S)oc2cc(Cl)ccc21 | 9 | -44% | 1.4% | 14%
32 | O=C(NCC(c1ccco1)N1CCc2ccccc21)C(=O)Nc1ccccc1 (configuration not stated) | . | . | 1.4% | 7%
33 | CC(C)CN(C(=O)COC(=O)CSc1ccc(Br)cc1)C1CCS(=O)(=O)C1 (configuration not stated) | . | . | 0.7% | 21%
34 | COc1ccc(S(=O)(=O)N(C)c2ccc(C(=O)NCCC(C)C)cc2)cc1 | 1 | 7% | -0.2% | -5%
35 | O=c1cc(CSc2nnc(-c3ccco3)o2)c2ccccc2[nH]1 | -7 | -18% | -0.1% | 1%
36 | Cc1cc(=O)n2[nH]c(-c3cccc(Cl)c3)cc2n1 | . | -25% | -0.9% | -1%
37 | O=c1[nH]c2ccccc2c2cn(-c3ccccc3)nc12 | . | -74% | -0.3% | 3%
38 | COC(=O)c1ccc(NC(=O)NC2CCCCC2)cc1 | -1 | -48% | -2.7% | 17%
39 | O=C(NC(Cc1c[nH]c2ccccc12)C(=O)O)c1ccco1 (configuration not stated) | -6 | 4% | -1.4% | 0%
40 | COc1ccc(NS(=O)(=O)c2cccc(C(=O)NNC(=O)CNC(=O)c3ccccc3Cl)c2)cc1 | . | . | 0.7% | -12%
41 | O=C(CSc1n[nH]c(=O)n1C1CC1)c1ccc2c(c1)OCCO2 | -6 | -14% | 5.9% | -11%
42 | COc1ccc(Cl)cc1NC(=O)CN(C)CC(=O)Nc1ccc2c(c1)OCO2 | . | . | 0.5% | 5%
43 | CCOC(=O)c1cc(-c2ccc(F)cc2)n(CC(=O)NCc2ccccn2)c1C | 5 | 1% | -3.2% | 17%
44 | Cc1cccc(C)c1NC(=O)CSc1nnc(C2CCCCC2)o1 | . | 6% | 3.5% | 1%
45 | N[C@@H](Cc1ccc(F)cc1)C(=O)O | 1 | . | -1.9% | 1%
46 | Cc1cccc(C(=O)NNC(=O)c2c(O)c3ccccc3n(C)c2=O)c1 | . | 2% | -2.1% | -12%
47 | CCCn1c(SCC(=O)Nc2cccc(Cl)c2Cl)n[nH]c1=O | 3 | 0% | -0.3% | 0%
48 | COc1cc2nc(COc3ccc(C#N)cc3)n(CC#N)c(=O)c2cc1OC | -7 | -2% | -0.3% | 2%
49 | CC1(C)CC(=O)C(C2=NC(C)(C)Cc3ccccc32)=C(O)C1 | 4 | 0% | -2.8% | -1%
50 | CN(C)c1cccc(C(=O)NC2CCCCCC2)c1 | -3 | -43% | -2.2% | -5%
51 | C=CCn1c(C)c(C(C)=O)c(SC)nc1=S | 10 | -2% | 1.2% | -10%
52 | COc1ccc(OCC(=O)O/N=C(\N)c2ccc(OC)c(OC)c2)cc1 | -7 | -14% | 3.6% | -4%
53 | CC1CCCN(C(=O)C2CCN(Cc3ccc4c(c3)OCO4)CC2)C1 (configuration not stated) | . | 0% | 2.7% | 2%
54 | CC1(C)CC(NCc2ccc3c(c2)OCO3)CCO1 (configuration not stated) | -15 | -2% | 4.2% | -2%
55 | CN(C)C(CNC(=O)c1ccc(S(=O)(=O)Nc2ccccc2F)cc1)c1ccccc1 (configuration not stated) | . | -4% | 1.4% | 5%
56 | COC(=O)c1cccc(-c2ccc(/C=N/N3C(=O)C4C5C=CC(C6CC56)C4C3=O)o2)c1 (configuration not stated) | -9 | 0% | -0.2% | 12%
57 | C[C@H](CO)N1C[C@H](C)[C@@H](CN(C)Cc2ccc(Cl)c(Cl)c2)Oc2c(NS(=O)(=O)c3cccs3)cccc2C1=O | . | . | 0.9% | 2%
58 | O=C(NCc1ccccc1)c1cc(=O)c2ccccc2o1 | -3 | 0% | 1.8% | -4%
59 | CCCCC(=O)NC(c1cccs1)c1cc(Cl)c2cccnc2c1O (configuration not stated) | -6 | ? | 0.7% | -11%
60 | COc1ccc(-n2c(CNC(=O)COc3ccc(Cl)cc3Cl)n[nH]c2=S)cc1 | -13 | -4% | -0.1% | 28%

(continued)
nr | mol | GLA inh pH 4.5 | miR-21 FLuc | Rango complex inh | Rango dissoc inh
61 | Cc1cccc(NC(=O)CCSc2nncn2C)c1 | 5 | -6% | -3.4% | 14%
62 | C#CCOCCOCCOCCNc1nc(N2CCN(C(=O)[C@H](CCC(=O)O)n3cc(CN)nn3)CC2)nc(N2CCN(C(=O)[C@H](CCC(=O)O)n3cc([C@@H](N)[C@H](C)CC)nn3)CC2)n1 | . | . | 1.2% | -13%
63 | COC(=O)C1=C(N)Oc2cc(C)n(CCN3CCOCC3)c(=O)c2C1c1cccnc1 (configuration not stated) | 7 | 0% | 0.3% | 8%
64 | COc1cccc(C(O)C2OC(=O)c3ccccc32)c1OC (configuration not stated) | . | . | -1.0% | 1%
65 | CC(C)N(CC(N)=O)c1ncnc2sc(-c3ccccc3)cc12 | . | 0% | 4.2% | 2%
66 | CC1CCCN(S(=O)(=O)c2ccc(C(=O)Nc3nnc(-c4ccccc4Cl)o3)cc2)C1 (configuration not stated) | -6 | -1% | 2.7% | -4%
67 | O=C(NN1C(=O)C2C3C=CC(C4CC34)C2C1=O)c1ccc(Cl)c(Cl)c1 (configuration not stated) | -4 | -2% | 1.2% | -5%
68 | COc1ccc(NC(=O)C(C)N2c3cccc4cccc(c34)S2(=O)=O)cc1OC (configuration not stated) | -4 | 7% | -0.6% | -3%
69 | CC1=C(C#N)C(c2ccc(O)cc2)C2=C(CCCC2=O)N1 (configuration not stated) | -2 | 0% | -2.5% | 0%
70 | O=C(COc1ccc2ccc(=O)oc2c1)NC1CCCC1 | . | -8% | -0.5% | 33%
71 | C/C(=N/N=C1/NC(=O)CC(C(=O)O)S1)c1ccccc1 (configuration not stated) | -9 | -4% | 7.4% | -2%
72 | CC(C)OC(=O)c1c2nc3ccccc3nc2n2c1[nH]c(=O)c1ccccc12 | -5 | 0% | . | .
73 | Cc1cc(NC(=O)CCC(=O)N(c2ccc(F)cc2)C2(C(=O)NC3CCCCC3)CCCC2)no1 | -12 | 12% | -1.2% | -2%
74 | O=C(C1=C[C@H](C2CCCCC2)C[C@H](OCc2ccc(CO)cc2)O1)N1CCN(Cc2ccc3c(c2)OCO3)CC1 | -1 | 13% | 2.0% | -7%
75 | COc1ccccc1NC(=O)c1cnc(Nc2ccccc2OC)c2ccccc12 | 5 | 4% | ? | -8%
76 | O=C(O)CCC(=O)NNC(=O)CCC1CCCCC1 | -7 | -1% | 1.5% | 1%
77 | CC(=O)c1ccc(N=C2SCCCN2C(=O)C2CCCC2)cc1 | -6 | -15% | -4.8% | -4%
78 | NC(=O)COc1c(-c2ccccc2)oc2ccccc2c1=O | -7 | -4% | 2.7% | 37%
79 | O=c1[nH]c(/C(Cl)=C/c2cccc(C(F)(F)F)c2)nc2cc(Cl)ccc12 | 1 | -1% | 5.9% | ?
80 | COCCNc1cc(-c2ccccc2)nc2cc(-c3cccc(F)c3)nn12 | . | 12% | 0.0% | 3%
81 | CCCSc1nc(=S)n(Cc2ccccc2)c(C)c1C(C)=O | -6 | -8% | -1.0% | -2%
82 | O=[N+]([O-])c1ccccc1S(=O)(=O)Oc1ccc(/C=N/n2cnnc2)cc1 | -5 | 10% | -1.9% | 4%
83 | CCOC(=O)CSc1nnc(Cn2c(=O)sc3ccccc32)n1-c1ccccc1C | 2 | -7% | 6.6% | 2%
84 | Oc1cc(O)c(CN2CCOCC2)cc1CN1CCOCC1 | . | . | 0.0% | -7%
85 | CC(NC(=O)CCC(=O)NC(C)C1COc2ccccc2O1)C1COc2ccccc2O1 (configuration not stated) | -2 | 6% | 2.9% | -12%
86 | CN(C(=O)COC(=O)c1cc(=O)[nH]c2ccccc12)c1ccccc1 | . | . | 9.8% | 6%
87 | CCCn1nc(C(=O)N2CCN(S(=O)(=O)c3ccc(C)c(C)c3)CC2)c2ccccc2c1=O | . | . | -3.2% | 10%
88 | Cc1onc(-c2ccccc2)c1C(=O)N/N=C/C=C/c1ccccc1 | -16 | -1% | 2.0% | 0%
89 | COc1cc(NC(=O)c2cc3nc(C4CC4)cc(C(F)(F)F)n3n2)c(OC)cc1Cl | 3 | 0% | 1.6% | -11%
